Bioassay records as filed in PubChem.
Mtb hypoxia inh – inhibitors of hypoxia-regulated fluorescent reporter in Mycobacterium tuberculosis | M. tuberculosis hypoxia-regulated fluorescent reporter, fluorescence | fluorescence inhibition, % (test concentration not listed) | actives 0.1% (n = 300,000) | AID 1159583;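 active = 35 to 45% if threefold the growth effect, above 45% if 1.5-fold the growth effect; inactive = the rest, general growth blockers included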;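 also: wells of about 50 µL received 100 nL stock; 0% = vehicle wells and 100% = reference inhibitor wells; whole bacteria with a GFP reporter of the hypoxia response; strong numbers were not always called active; many hits fall short of the cut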
Bead autofluor – counter-screen for toxin protease inhibitors: compound fluorescence | compound autofluorescence counterscreen, microsphere flow cytometry; stronger effect = higher value | fluorescence intensity (concentration not given with the values) | actives 3.1% (n = 360,000);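 active = at least 3 SD above the mean of all compounds, about 16000 in these data; inconclusive = too few beads counted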;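 also: 100 nL of 1 mM stock went into each well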
Sa RN4220 lethal – kills Staphylococcus aureus RN4220; inhibition, % (no concentration beside the values); S. aureus RN4220 growth, OD600, 16 h; actives 0.33% (n = 330,000);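 active = z-score of -3 or lower and OD600 up to 0.18 on both plates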;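 also: plate controls were untreated cells for no effect and reference antibiotic for full effect; stock transfer was 100 nL into about 80 µL; one replicate is shown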
BJeLR lethal – BJeLR cell viability loss. BJeLR (HRASV12) viability, CellTiter-Glo ATP luminescence, 48 h; reference of the scale not given here. inhibition, % (test concentration not listed). actives 0.17% (n = 300,000);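 active = replicate mean above 50%; inconclusive = above 50% but judged a plate artefact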;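 also: 50 nL library stock added to about 25 µL; numbers are from one replicate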
Sa ugtP lethal – growth inhibition of S. aureus ugtP deletion strain | S. aureus RN4220 ugtP deletion, OD600 growth, 16 h; some inactives read as strong as hits | growth inhibition, % (no concentration beside the values) | actives 0.54% (n = 330,000);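 active = z-score under -3 and OD600 up to 0.15 on both plates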;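 also: plate controls were untreated wells for no effect and antibiotic for full effect; wells of about 80 µL received 100 nL stock; the first replicate is given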
PrP 5UTR inh – suppresses PrP 5' UTR mRNA reporter expression. cell-based PrP 5' UTR mRNA reporter, plate reader. inhibition, % (no concentration beside the values). actives 0.35% (n = 340,000);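 active = every replicate at 50% or more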;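 also: 0 = median of the neutral control wells; tested in H4 reporter cells; numbers are from one replicate; inactives centre near -14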
Mtb hypoxia inh growth – recorded beside Mtb hypoxia inh, whose call it bears; growth inhibition, %; measured here: M. tuberculosis growth (absorbance);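 0% = vehicle and 100% = reference antibiotic; read after six days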
* marks the source's active call; other numbers are inactive results; ? = inconclusive; . = not tested or not shown.

Sample of the layout (4 entries):
1. Cc1nn(CC#N)c(=O)n1-c1ccccc1F
2. Cc1nnc(SCC(=O)N2c3ccccc3C(C)(c3ccccc3)CC2(C)C)s1 (configuration not stated)
3. COc1cccc(NC(=O)Cn2c(CCC(=O)O)ccc2-c2cccs2)c1
4. CC(C)Oc1ccc2c(=O)c(-c3ccccc3)coc2c1
compound no.,1,2,3,4
PrP 5UTR inh,-4,1,6,-66
BJeLR lethal,-3,-5,-3,5
Mtb hypoxia inh,10,8,3,10
Mtb hypoxia inh growth,-3,5,2,4
Bead autofluor,4659,2358,3974,5619
Sa ugtP lethal,0,12,4,1
Sa RN4220 lethal,-1.5,4.7,6.6,5.2

All compounds of this part, from the first entry:
1. Cc1nn(CC#N)c(=O)n1-c1ccccc1F
2. Cc1nnc(SCC(=O)N2c3ccccc3C(C)(c3ccccc3)CC2(C)C)s1 (configuration not stated)
3. COc1cccc(NC(=O)Cn2c(CCC(=O)O)ccc2-c2cccs2)c1
4. CC(C)Oc1ccc2c(=O)c(-c3ccccc3)coc2c1
5. COc1ccc(CCNC(=O)/C=C/c2ccco2)cc1OC
6. Cc1ccc(NC(=O)c2nc[nH]c2C(=O)NCc2ccccc2)cc1
7. O=c1cc(-c2ccccc2)c2c(O)cc(O)cc2o1
8. C=CCN1C(=O)/C(=C/c2cc(C)n(-c3cccnc3)c2C)C(=O)NC1=S
9. Cc1ccc(OCC(=O)N2CCC3(CC2)CC(=O)c2ccccc2O3)cc1
10. COc1ccc(/C=N/NC(=S)SC)cc1OC
compound no.,1,2,3,4,5,6,7,8,9,10
PrP 5UTR inh,-4,1,6,-66,0,-12,-16,-10,-8,-14
BJeLR lethal,-3,-5,-3,5,-7,.,-14,-8,-7,4
Mtb hypoxia inh,10,8,3,10,14,9,8,4,-9,.
Mtb hypoxia inh growth,-3,5,2,4,7,5,7,12,6,.
Bead autofluor,4659,2358,3974,5619,3253,4238,3294,2525,?,2275
Sa ugtP lethal,0,12,4,1,6,-2,2,3,-4,.
Sa RN4220 lethal,-1.5,4.7,6.6,5.2,7.6,-5.7,3.3,0.6,0.1,.

11. CN1c2ccccc2C(C)(C)C12CC(c1ccc(S(=O)(=O)N3CCCCC3)cc1)=NO2 (configuration not stated)
12. N#CC1=C(N)OC2=C(CCc3ccccc32)C1c1ccccc1Cl (configuration not stated)
13. O=C(CN(CCO)c1ccccc1)Nc1ccc(Cl)c(S(=O)(=O)N2CCOCC2)c1
14. O=C(COC(=O)c1cc(S(=O)(=O)N2CCOCC2)ccc1F)Nc1c(Cl)cccc1C(F)(F)F
15. Cc1ccc(-c2cc(C(F)(F)F)n3nc(C(=O)Nc4c(C)n(C)n(-c5ccccc5)c4=O)cc3n2)cc1
16. Cc1ccc(CNC(=O)C2C3C=CC(C3)C2C(=O)O)cc1 (configuration not stated)
17. COc1cccc(C(=O)NCc2cn3ccsc3n2)c1
18. CC(=O)Nc1nnc(COc2ccc(Cl)cc2)s1
19. COc1ccc(-c2nc(CS(=O)CC(=O)N3CCN(C)CC3)c(C)o2)cc1OC (configuration not stated)
20. O=C(CSc1n[nH]c(=O)n1C1CC1)Nc1ccc(F)c(Cl)c1
compound no.,11,12,13,14,15,16,17,18,19,20
PrP 5UTR inh,26,35,-13,-9,-7,-21,-20,-55,-4,-6
BJeLR lethal,20,29,2,6,12,-4,-5,5,6,.
Mtb hypoxia inh,5,3,-9,5,-17,8,5,-2,4,2
Mtb hypoxia inh growth,-1,11,-13,10,10,12,10,-2,5,2
Bead autofluor,2135,11056,4645,?,4416,3934,8912,4562,5390,3178
Sa ugtP lethal,10,-19,4,8,-6,0,-12,5,1,-3
Sa RN4220 lethal,3.1,12,3.9,11,16,6.7,-14,2.9,-0.9,0.8

21. CC(C)[C@H](NC(=O)N1CC(=O)Nc2ccccc21)C(=O)N[C@@H](C(=O)O)c1ccccc1
22. COc1ccc(-c2c3c(=O)n(C)c(=O)n(C)c3cn2-c2cccc(OC)c2)cc1
23. COC(=O)c1ccc(NC(=O)CC(=O)Nc2ccc(C(=O)OC)cc2)cc1
24. COC(=O)c1cccc(Nc2cc(C)nc(-c3ccccc3O)n2)c1
25. O=C(NC1CCS(=O)(=O)C1)/C(=C\c1ccco1)NC(=O)c1ccccc1 (configuration not stated)
26. O=C(Nc1ccccc1F)c1cc2c(s1)-c1ccccc1S(=O)(=O)C2
27. O=C(NCC1CCCO1)c1ccc(NS(=O)(=O)c2cccc([N+](=O)[O-])c2)cc1 (configuration not stated)
28. CCOC(=O)N1CCc2c(sc3nc(SC(C)C)n(N)c(=O)c23)C1
29. COCCN1C(=O)C(=O)/C(=C(/O)c2ccc3c(c2)OCCO3)C1c1ccc(C(=O)OC)cc1 (configuration not stated)
30. O=C(NC1CCCC1)C1CCN(C(=O)c2ccc(-c3ccccc3)cc2)CC1
compound no.,21,22,23,24,25,26,27,28,29,30
PrP 5UTR inh,-19,-10,-8,-10,-32,-13,-8,-21,-3,-15
BJeLR lethal,3,0,11,2,-10,11,-2,10,-8,-3
Mtb hypoxia inh,8,1,-6,5,6,5,.,5,.,1
Mtb hypoxia inh growth,4,-7,8,-2,4,10,.,1,.,0
Bead autofluor,5678,10478,3683,11524,6168,5937,4002,2599,2408,4658
Sa ugtP lethal,3,-12,0,67,3,10,.,4,.,3
Sa RN4220 lethal,1.1,-0.8,3.0,25,2.5,3.3,.,-1.9,.,1.1

31. Cc1ccc(NN2C(=O)C=CC2=O)cc1
32. COc1ccc(CCNC(=O)C(=O)NCC2OCCN2S(=O)(=O)c2ccc(C)cc2)cc1OC (configuration not stated)
33. CCC1(C)Cc2c(C#N)c(N)n(-c3ccccc3)c(=O)c2CO1 (configuration not stated)
34. O=C(C1CCCN(Cc2ccccc2Cl)C1)N1CCCCC1 (configuration not stated)
35. O=C(C1CCC1)N1CCN(S(=O)(=O)c2ccc(Br)cc2Cl)CC1
36. CC(Nc1cccnc1)=C(C#N)C#N
37. Cc1cc(C)cc(-n2c(C)cc(C=NNC(=O)c3cccc([N+](=O)[O-])c3C)c2C)c1
38. O=C(Nc1ccc2oc(-c3ccc4ccccc4c3)nc2c1)c1ccc2c(c1)OCCO2
39. CCCCCC(=O)N1CCN(S(=O)(=O)c2ccc3c(c2)OCCO3)CC1
40. CCOC(=O)c1ccc(NC(=O)c2ccc(OC(C)C)c(OC)c2)cc1
compound no.,31,32,33,34,35,36,37,38,39,40
PrP 5UTR inh,-13,-14,-25,-4,-13,-8,.,-63,-21,-7
BJeLR lethal,6,11,-1,6,1,1,.,0,5,-1
Mtb hypoxia inh,.,0,2,11,-10,0,-12,-17,6,-9
Mtb hypoxia inh growth,.,16,3,12,0,5,3,-5,2,9
Bead autofluor,2080,6326,15269,3781,4901,4367,.,9066,?,3920
Sa ugtP lethal,.,-10,6,2,0,0,-11,-30,9,4
Sa RN4220 lethal,.,-13,3.7,1.2,2.2,5.4,-3.4,-10,2.8,8.8

41. CCn1nnc(NC(=S)NC(=O)c2ccc(-c3cccc(Cl)c3)o2)n1
42. COc1cc(CCC(=O)N2CC(C)OC(C)C2)cc(OC)c1OC (configuration not stated)
43. CC1=C(C(=O)Nc2ccccc2)C(c2ccco2)NC(=O)N1 (configuration not stated)
44. COc1ccc2[nH]c3c(c2c1)CCN1C(=O)C(CC(=O)NCc2cccc(C(F)(F)F)c2)C[C@H](C(=O)N2CCCCC2)[C@@]31C (some centres not stated)
45. COC(=O)COc1ccc(S(=O)(=O)N2CCN(c3ccc(F)cc3)CC2)cc1
46. CC(=O)c1ccc(S(=O)(=O)N2CCN(S(=O)(=O)c3ccccc3C(F)(F)F)CC2)cc1
47. CCCCC(=O)Nc1cccc(NC(=S)NC(=O)C(C)C)c1
48. O=C(CSc1ncnc2nc[nH]c12)N1CCN(c2ccc(Cl)cc2)CC1
49. O=C(CCNS(=O)(=O)c1ccccc1)Nc1ccc(Cl)cc1C(=O)c1ccccc1
50. CCCn1c(CNC(=O)Cc2ccccc2)nc2ccccc21
compound no.,41,42,43,44,45,46,47,48,49,50
PrP 5UTR inh,-28,3,-11,-21,-9,-23,-9,-6,-9,-18
BJeLR lethal,-2,5,-3,.,-6,4,2,4,0,-2
Mtb hypoxia inh,-3,-7,-4,-8,-6,2,9,-3,-11,14
Mtb hypoxia inh growth,1,-2,1,5,4,-1,3,6,-8,15
Bead autofluor,5871,5829,9478,3485,5861,3903,2398,16576*,2092,9719
Sa ugtP lethal,-21,0,4,-18,-2,6,13,12,-11,4
Sa RN4220 lethal,7.9,1.7,4.8,-0.6,-4.3,3.6,5.0,7.3,-1.2,1.2

51. CCOc1cc(CNC(=O)CCCn2c(=O)c3cccn3c3cccnc32)cc(OCC)c1OCC
52. NNc1nc(-c2ccccc2Cl)nc2ccccc12
53. Cc1ccccc1Cc1c(C)nc2nc(SCC(=O)NCc3ccco3)nn2c1C
54. COc1ccc(-c2nnc(Nc3ccc(CC(N)=O)cc3)c3ccccc23)cc1
55. CCCC(=O)Nc1ccc(C(=O)NNC(=O)COc2ccc(Br)c(C)c2)cc1
56. CC1=NN(C(=O)c2ccccc2C)C(O)(c2ccc(Cl)cc2)C1 (configuration not stated)
57. CCN1CCC2(CCNC2)C1 (configuration not stated)
58. CC(C1CC1)N(Cc1ccccc1)C(=S)Nc1cccc(C(F)(F)F)c1 (configuration not stated)
59. COc1ccc(Oc2ccccc2/C=N/O)cc1
60. O=C(CNC(=O)c1cccc(F)c1)N/N=C/C=C/c1ccccc1
compound no.,51,52,53,54,55,56,57,58,59,60
PrP 5UTR inh,-20,-10,-2,-14,-13,-50,10,-29,-9,-4
BJeLR lethal,-6,-11,-12,-5,-4,5,-17,5,-8,-4
Mtb hypoxia inh,-3,2,13,6,-2,14,7,-2,.,.
Mtb hypoxia inh growth,1,3,6,1,4,2,-4,8,.,.
Bead autofluor,5348,3446,9154,2137,8085,4165,16425*,8556,2804,4048
Sa ugtP lethal,5,-14,0,8,2,5,12,-22,.,.
Sa RN4220 lethal,4.8,-0.7,0.3,2.4,5.5,4.8,2.7,-1.9,.,.

61. Cc1cccc(OCC(=O)NCCCNC(=O)c2ccc(C)nc2)c1
62. Nc1ccc(C(=O)Nc2ccco2)cc1
63. Cc1ccc(-c2cc(-c3ccc(F)cc3)nc(N)c2C#N)o1
64. CCCCOC(=O)NC1(C)CCS(=O)(=O)C1 (configuration not stated)
65. Nc1nc(NCC(=O)O)nc(NC2CCCCC2)c1[N+](=O)[O-]
66. COc1ccc(C(=O)CSc2nnc(-c3ccccn3)n2Cc2ccco2)cc1
compound no.,61,62,63,64,65,66
PrP 5UTR inh,-24,-3,14,-12,-10,-16
BJeLR lethal,-3,-13,0,10,1,-5
Mtb hypoxia inh,10,0,.,8,0,11
Mtb hypoxia inh growth,-2,-5,.,1,7,14
Bead autofluor,3082,6153,2716,1965,3430,9443
Sa ugtP lethal,-2,2,10,3,8,0
Sa RN4220 lethal,1.5,-1.9,-0.6,0.8,2.4,4.5
